# Cruzain Triton = qHTS Assay for Promiscuous and Specific Inhibitors of Cruzain (with detergent); Potency, µM, for the others: max response, negative = inhibition, hits mostly inhibitors; 0.43% of 200,000 active; Cruzipain (Trypanosoma cruzi), P25779; purified cruzain, Z-FR-AMC fluorescence, 0.01% Triton; active means well fitted curve in the direction sought with a large enough effect; inconclusive means small, poorly fitted or top-dose-only effect, or another doubt; inactive means no such curve, though single readings can be large; an effect the other way counts as inactive or inconclusive;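 further: plate controls were neutral wells for no effect and buffer without enzyme for full effect; nearly all actives have a fitted effect of over 40% in size; top concentration of the series not given in the record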
# Target sequence (P25779 123-467 limits assumed): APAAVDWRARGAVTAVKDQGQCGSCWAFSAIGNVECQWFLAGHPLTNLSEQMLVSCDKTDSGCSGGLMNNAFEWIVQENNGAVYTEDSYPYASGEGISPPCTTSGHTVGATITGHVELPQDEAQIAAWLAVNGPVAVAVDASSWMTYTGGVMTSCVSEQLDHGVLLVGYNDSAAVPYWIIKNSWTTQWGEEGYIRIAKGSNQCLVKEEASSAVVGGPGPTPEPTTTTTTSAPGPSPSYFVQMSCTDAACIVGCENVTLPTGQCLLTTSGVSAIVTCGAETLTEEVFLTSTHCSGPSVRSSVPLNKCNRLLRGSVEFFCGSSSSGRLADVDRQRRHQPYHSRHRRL
#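 15 min RT preincubation of 1.5 nM cruzain with compound, then 2 uM Z-FR-AMC added; kinetic AMC fluorescence, 60 s delta. Triton X-100 0.01%, pH 5.5.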
# 2A StopGo = High Throughput Screening for Foot and Mouth Disease Virus Antivirals; human cells with a luciferase reporter of 2A StopGo recoding; control for the full effect not named in the record; 1.2% of 410,000 active; Potency, µM (top dose mostly 57.9 µM), inactives show top-dose signal change, negative = less light; AID 1159524, 2015; active = well fitted falling curve with a large enough effect; inconclusive = small, poorly fitted or top-dose-only effect; inactive = no such curve, though single readings can be large or run the other way; tested in HEK293T cells; further: on the % scale 0 is the no-effect control and ±100 the full control effect; nearly all actives have a fitted effect of over 45% in size; luciferase light after 4 h
# LASV entry inh = qHTS for Inhibitors of binding or entry into cells for Lassa Virus | Lassa virus pseudotype entry inhibition, cell reporter; control for the full effect not named in the record | 1.2% of 300,000 active | Potency, µM (series often up to 37.9 µM), for the others: at the highest dose activity change, negative = inhibition, hits mostly inhibitors; active means well fitted inhibition curve with a large enough effect; inconclusive means small, poorly fitted or top-dose-only effect, or effect the other way; inactive means flat fitted curve, though single readings scatter; tested in HEK293 cells; further: on the % scale 0 is the no-effect control and ±100 the full control effect; nearly all actives have a fitted effect of over 50% in size; luciferase read-out
# RE007 growth inh = qHTS Assay for Inhibitors of the HIV-1 protein Vpr | AID 651644, 2012 | Potency, µM (titrated, usually from 92.2 µM), for the others: top-dose activity change, negative = less growth | 0.21% of 360,000 active | S. pombe RE007 Vpr strain, BacTiter-Glo ATP luminescence, 24 h; control for the full effect not named in the record; active = well fitted falling curve with a large enough effect; inconclusive = small, poorly fitted or top-dose-only effect; inactive = no such curve, though single readings can be large or run the other way;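 further: on the % scale 0 is the no-effect control and ±100 the full control effect; nearly all actives have a fitted effect of over 50% in size; the assay follows cell death caused by Vpr and the record does not say whether a fall means rescue or toxicity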
#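 Fission yeast strain RE007, carrying one chromosomally integrated HIV-1 vpr copy, was seeded at OD 0.01 in PMG+AL medium with 23 nL pinned compound. After 24 h at 30 °C and 99% humidity, viability was read by BacTiter-Glo luminescence.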
# Cruzain inh noDet = qHTS Assay for Promiscuous and Specific Inhibitors of Cruzain (without detergent); Cruzipain (Trypanosoma cruzi), P25779; purified cruzain, Z-FR-AMC fluorescence, no detergent; Potency, µM, inactives show max response, negative = inhibition, actives largely listed as inhibitors; 2.3% of 200,000 active; active means well fitted curve in the direction sought with a large enough effect; inconclusive means small, poorly fitted or top-dose-only effect, or another doubt; inactive means no such curve, though single readings can be large; an effect the other way counts as inactive or inconclusive;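 further: plate controls were enzyme without inhibitor for no effect and buffer without enzyme for full effect; nearly all actives have a fitted effect of over 40% in size; top concentration of the series not given in the record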
#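 Purified cruzain at 1.5 nM, pre-incubated 15 min with compound at room temperature in 100 mM sodium acetate pH 5.5, 5 mM DTT, 0.00005% Triton X-100. Reaction started with 2 uM Z-FR-AMC; AMC fluorescence increase over 60 s gives rate.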
# Marburg entry inh = qHTS for inhibitors of binding or entry into cells for Marburg Virus | AID 540276, 2011 | Potency, µM (series often up to 37.8 µM), inactives show at the highest dose activity change, negative = inhibition, hits mostly inhibitors | Marburg virus pseudotyped entry inhibition, cell reporter; control for the full effect not named in the record; about a third of the inactives were read at about 46 µM | 1.8% of 300,000 active; active = well fitted inhibition curve with a large enough effect; inconclusive = small, poorly fitted or top-dose-only effect, or effect the other way; inactive = flat fitted curve, though single readings scatter; tested in HEK293 cells; about a fifth of its hits are not listed in these tables; further: on the % scale 0 is the no-effect control and ±100 the full control effect; luciferase read-out
# SARS PLP yeast = qHTS of Yeast-based Assay for SARS-CoV PLP; Potency, µM (highest dose often 32.9 µM), without a hit: at the highest dose activity, positive = growth rescue; S. cerevisiae expressing SARS-CoV PLpro, growth rescue; control for the full effect not named in the record; 0.19% of 330,000 active; further: 0% is about no effect; nearly all actives have a fitted effect of over 55% in size; growth read by luminescence after 48 h
# NS1 inh = qHTS Assay for Inhibitors of Influenza NS1 Protein Function. 0.4% of 270,000 active. S. cerevisiae slowed by influenza A NS1, growth recovery by OD600. Potency, µM (series often up to 46.1 µM), for inactives: at the top dose activity, positive = more growth; further: actives are rising curves; nearly all actives have a fitted effect of over 50% in size
#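 A cell-based growth assay was used: compounds that relieve NS1-induced slow growth of budding yeast raise OD600. Assay medium was yeast nitrogen base with ammonium sulphate and -URA supplement, pH 6.0, with 2% galactose.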
# * hit, by the source's call; ? = inconclusive; / = no result given; & = joins results of further samples; [ ] = remark or other dose. Unless noted, the call rests on the fitted dose curve; in most records, active means well fitted rising curve with a large enough effect; inconclusive means small, poorly fitted or top-dose-only effect; inactive means no such curve, though single readings can be large or run the other way. Potency means the concentration at half of the fitted maximal effect.
SMILES,Cruzain Triton,2A StopGo,LASV entry inh,RE007 growth inh,Cruzain inh noDet,Marburg entry inh,SARS PLP yeast,NS1 inh
S=C(NC1CC1)N1CCN(C(=S)NC2CC2)CC1,/,-4%,13%[46.1 µM],-6%,/,0%[46.1 µM],-3%,-5%
COc1cc(C2NC(=O)c3c(sc4c3CCN(C)C4)N2)cc(Br)c1OC(=O)c1ccc(C)cc1 (stereo not drawn),-3.0%,-1%,4%[46.1 µM],/,-3%,/,/,/
CN(C)Cc1ccc(O)c(CCc2ccccc2)n1,-0.1%,5%,-1%,0%,3%,25%,18%,-2%
COc1ccc(-n2c(SCC(=O)N(C)C3CCS(=O)(=O)C3)nc3ccc(O)cc3c2=O)cc1OC (stereo not drawn),/,25%,-5%[46.1 µM],-10%,/,-22%[46.1 µM],-2%,/
O=C(/C=C/c1ccc(Cl)cc1Cl)n1cccn1,-1.7%,7%,?,-25%,5%,-29%,-8%,-29%
CCOC(=O)CSc1c(-c2ccc(Cl)cc2)[nH]c2ccccc12,-5.4%,13%,-27%,0%,4%,-18%,1%,-1%
COCCNC(=O)c1ccc2c(c1)N(Cc1cccc(Cl)c1)C(=O)c1ccccc1S2(=O)=O,-3.6%,0%,?,/,10%,/,/,/
Cc1cc(N2CCN(c3cccc(C)c3C)CC2)nc(-c2ccccc2)n1,-5.7%,?,-10%,-19%,18%,8%,-71%,-22%
CC(=O)c1cccc(Nc2nc(N3CCOCC3)nc(N3CCOCC3)n2)c1,/,-5%,/,-2%,/,/,-7%,7%
CCCN(CCC)CCNC(=O)CS(=O)Cc1nc(-c2ccc(C)cc2)oc1C (stereo not drawn),3.8%,0%,-9%,4%,-13%,?,3%,10%
c1ccc(CSc2ccc(-c3ccc4c(c3)OCO4)nn2)cc1,-1.5%,30%[activator],?,6%,-8%,?,6%,-17%
CC(=O)Nc1ccc(NC(=O)CCc2ccc(C)o2)cc1,/,2%,/,0%,/,/,-1%,-3%
COc1ccc(OC)c(-c2cc(-c3cccnc3)nc(N)c2C#N)c1,/,?,?,50%,/,1.4µM*,-1%,0%
CCCNC(=O)N1CCC(C(=O)c2cccc(F)c2)CC1,7.6%,-11%,11%,1%,0%,2%,-9%,1%
Cc1ccc(-n2c(SCC(=O)NCCN3C(=O)CSC3=O)nnc2-c2ccccc2)cc1C,0.4%,-23%,?,7%,-8%,?,15%,8%
NS(=O)(=O)c1ccc(CNC(=O)c2cc(=O)[nH]c3ccccc23)cc1,/,-3%,1%,28%,/,7%[46.1 µM],6%,6%
Cc1cc(NC(=O)Cn2ccc([N+](=O)[O-])n2)no1,/,-5%,-12%[46.1 µM],0%,/,17%[46.1 µM],-1%,2%
COC(=O)c1ccc(CSc2nc3cc(Cl)ccc3o2)cc1,0.5%,-10%,0%,2%,-4%,-3%,5%,-3%
Cn1c(=O)c2c(nc(NCC3CCCC(CN)C3)n2Cc2ccc(Cl)cc2Cl)n(C)c1=O (stereo not drawn),/,-14%,/,3%,/,/,0%,4%
CCc1nnc(N/N=C/c2cc(C)c(C)cc2C)n1N,/,4%,?,-5%,/,?,-13%,-69%
CC(=O)NS(=O)(=O)c1ccc(NC(=O)c2ccc(-n3nc(C)cc3C)cc2)cc1,/,27%,-2%[46.1 µM],0%,/,3%,4%,/
CCOC(=O)N1CCN(C(=O)Nc2ccccc2Cl)CC1,6.3%,/,4%,3%,1%,15%,-1%,0%
COc1ccc(C(=O)NC(=S)NNC(=O)c2cccnc2)cc1,/,16%,-11%,-4%,/,17%[46.1 µM],-5%,-33%
CC1CCCN(CCCNC(=O)c2ccc3c(c2)N(Cc2ccc(F)cc2)C(=O)c2ccccc2S3=O)C1 (stereo not drawn),/,-16%,?,-12%,/,?,?,-3%
Cc1cc(C)c(C(=O)NC2CCCc3c2cnn3-c2cccc(C)c2C)o1 (stereo not drawn),/,-17%,?,12%,/,?,3%,-6%
CCc1ccc(CN(C(=O)c2cc3ccccc3oc2=O)C2CCS(=O)(=O)C2)cc1 (stereo not drawn),-5.6%&-4.8%,50%&72%[activator],2%[46.1 µM],14%,-12%&1%,?,3%,10%
Cc1ccc(/C=C/C(=O)N2CCC(Cc3ccccc3)CC2)cc1,-3.9%,-17%,-6%,-10%,15%,-2%,-11%,-44%
COc1cccc(N2CCN(C(=O)Cn3cnc4onc(-c5ccc(F)cc5)c4c3=O)CC2)c1,0.7%,-11%,-7%[46.1 µM],/,-11%,/,/,/
CCCCNC(=S)N1CCN(C)CC1,/,-17%,1%[46.1 µM],-5%,/,?,0%,/
O=C(O)c1cccc(NC(=S)N/N=C/c2cccc(O)c2)c1,/,-18%,?,-8%,/,?,1%,/
COc1ccc(CCC(=O)Nc2cc3c4c(c2)CCC(=O)N4CCC3)cc1,/,-15%,0%,-24%,/,8%,-5%,/
CCOC(=O)CC1=C(C#N)C(c2cccnc2)C(C(=O)OCC)=C(N)O1 (stereo not drawn),-2.7%,-24%,-2%,-1%,-9%,0%&0%,0%,5%
O=C(Cc1ccccc1)N/N=C/c1cc(Br)cs1,/,61%[activator],?,3%,/,24%,0%,-2%
CCc1c(C(=O)Nc2cc(C)ccc2OC)[nH]c(C)c1C(C)=O,4.0%,-28%,-1%,11%,19%,?,1%,-10%
CCc1ccc(-c2nc(CS(=O)CC(=O)NCCc3ccc(Cl)cc3)c(C)o2)cc1 (stereo not drawn),-4.2%,-6%,4%[46.1 µM],/,-7%,/,/,/
COc1cc(NC(=O)c2cc3c(C)nc4ccccc4c3o2)cc(OC)c1OC,-6.0%,0%,/,4%,?,-4%,-8%,-92%
O=C(NCCN1C(=O)S/C(=C\c2ccc(Cl)cc2)C1=O)C1=COCCO1,/,-8%,2%,1%,/,?,-4%,/
CCOc1ccc(N2C(=O)c3cccnc3C2Nc2ccc(F)cc2)cc1 (stereo not drawn),-1.0%,103%[activator],-11%,2%,-6%,0%,1%,-5%
COc1ccc(NC(=O)NC2CCCc3ccccc32)cc1 (stereo not drawn),/,13%,?,10%,/,?,1%,5%
CCOC(=O)C1=C(N)N2C(=O)C(C)SC2=C(C(=O)OCC)C1c1ccc(O)cc1 (stereo not drawn),/,-20%,/,2%,/,/,0%,-26%
CCOc1ccc(NC(=O)CN(C)S(=O)(=O)c2ccc3c(c2)c(=O)n(C)c(=O)n3C)cc1,0.5%,-8%,0%[46.1 µM],/,-7%,-25%[46.1 µM],/,/
O=C(CSc1nnc(CNc2ccc(F)cc2)n1Cc1ccco1)NC1CC1,2.5%,-13%,12%,-2%,-8%,?,-5%,6%
COc1ccc(CNC(=O)CN(Cc2ccc(OC)cc2)C(=O)CCC(=O)Nc2nccs2)cc1,/,6%,?,4%,/,?,0%,2%
NS(=O)(=O)c1ccc(Nc2nc(-c3ccc(O)cc3O)cs2)cc1,-12%,?,-23%,-1%,-19%,?,8%,?
Cc1nnc(C)c2c(C)n(-c3ccccc3N)c(C)c12,/,-6%,/,-1%,/,/,0%,7%
COc1ccc(-n2ncc3c(NC(C)(C)CO)ncnc32)cc1,0.0%,-7%,-2%[46.1 µM],/,-2%,/,/,/
CCOC(=O)Cn1c(=O)c2c(nc3n2CC(C)CN3Cc2ccccc2)n(C)c1=O (stereo not drawn),/,-12%,/,6%,/,/,6%,-6%
O=C(Nc1ccc(-c2cscn2)cc1)C1CCCN(Cc2ccc(CO)o2)C1 (stereo not drawn),/,-10%,?,3%,/,2%,0%,-8%
CCOC(=O)c1nc(C)n(-c2cc(Cl)cc(Cl)c2)n1,3.2%,17%,0%,4%,3%,28%,7%,2%
O=C(NCC(=O)N1CCN(c2cccc(Cl)c2)CC1)c1ccc(Br)o1,/,-8%,-1%,2%,/,?,-1%,/
O=c1[nH]c(C2C3CC4CC(C3)CC2C4)nc2ccccc12 (stereo not drawn),-1.1%,12%,11%,-16%,3%,-3%,2.8µM*,0%
CC(C)CCNC(=O)CCC(=O)N1Cc2ccccc2Oc2ncccc21,-0.1%,-5%,4%[46.1 µM],/,9%,/,/,/
Cc1ccc(CNC(=O)Cn2cc(C(F)(F)F)ccc2=O)cc1,2.3%,15%,0%,-10%,-16%,4%,24%,?
N#C/C(=C\c1ccc(OCC(N)=O)cc1)C(=O)NC1CC1,/,24%,/,8%,/,/,0%,-4%
O=C(CCN1C(=O)C2CCCCC2C1=O)Nc1cc(F)ccc1F (stereo not drawn),/,?,-1%,5%,/,-5%,-2%,0%
CCN(CC)CCCNC1CCS(=O)(=O)C1 (stereo not drawn),7.5%,-12%,-12%,-1%,4%,6%,-1%,5%
CC(C)c1ccc(C(=O)N(c2ccccn2)C(C)c2ccco2)cc1 (stereo not drawn),1.8%,118%[activator],?,-4%,-1%,1%,0%,-50%
O=C1OCC2=C1C(c1cccc(Cl)c1)CC(=O)N2c1ccc(C(F)(F)F)cc1 (stereo not drawn),-4.1%,0%,-7%[46.1 µM],/,0%,-21%[46.1 µM],/,/
C/C(=N\N=C1\NC(=O)CC(C(=O)O)S1)c1cccs1 (stereo not drawn),-2.4%,14%,-1%,1%,-13%,26%,6%,-4%
Cc1ccc(-n2ncc3c(=O)n(CC(=O)N4CCN(c5ccccc5)CC4)cnc32)cc1C,/,6%,5%,4%,/,10%,2%,-2%
Clc1ccc(OCc2nn[nH]n2)cc1,/,7%,/,3%,/,/,4%,9%
NC(=O)NOCc1ccccc1F,/,-5%,-1%[46.1 µM],14%,/,-1%[46.1 µM],0%,1%

# An unsorted share of the library, and some 4.5% of all compounds hit somewhere here.
